Sfp inh = qHTS Assay for Inhibitors of Bacillus subtilis Sfp phosphopantetheinyl transferase (PPTase). 4'-phosphopantetheinyl transferase ffp (Bacillus subtilis), Q9F4F7. Biochemical Sfp PPTase activity, qHTS. Potency, µM, for the others: max response, negative = inhibition, most hits filed as inhibitors. 310,000 tested, 3.5% active; active = well fitted inhibition curve with a large enough effect; inconclusive = small, poorly fitted or top-dose-only effect, or another doubt; inactive = no such curve, though single readings can be large or run the other way;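 note: the enzyme is Sfp with the accession as filed and its product quenches rhodamine fluorescence; potency is the fitted concentration of half-maximal effect; 0% = enzyme reaction without inhibitor and -100% = no enzyme wells; top concentration of the series not given in the record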
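Reaction rates are the 30-min fluorescence difference (ex 525, em 598 nm) in wells containing 15 nM Sfp, 5 uM rhodamine-CoA and 12.5 uM BHQ-2-YbbR at pH 7.6 with 10 mM MgCl2.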
Menin-MLL FL inh = qHTS Assay for Inhibitors Targeting the Menin-MLL Interaction in MLL Related Leukemias: Competition With Fluorescein Labeled MLL-derived Peptide; FP activity change, % at 61.4 µM; AID 1766, 2009; Fluorescence polarization, fluorescein-MLL peptide displacement from menin; 290,000 tested, under 10 active; inconclusive = falling polarisation curve, or a change in total fluorescence; inactive = total fluorescence flat and polarisation flat or rising; no compound was filed as active; the % refers to the polarisation; negative = inhibition;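 note: % of control where 0% means no effect; inhibitors lower the polarisation; unlabelled MLL peptide was the positive control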
TRPV1 potentiator = HTS Assay for Compounds that Act as Potentiators of the Vanilloid Receptor 1 | Transient receptor potential cation channel subfamily V member 1 (Homo sapiens), Q8NER1 | TRPV1-expressing cells, Fluo-8 calcium influx, capsaicin EC20 potentiation; host cell line not named in the record; control for the full effect not named in the record | potentiation, % at 8.33 µM | 320,000 tested, 0.02% active | AID 540277, 2011; active means potentiation above 80%; inconclusive means 30% to 80%; inactive means below 30%; note: 0% is about no effect
Target sequence (Q8NER1 whole entry, looked up): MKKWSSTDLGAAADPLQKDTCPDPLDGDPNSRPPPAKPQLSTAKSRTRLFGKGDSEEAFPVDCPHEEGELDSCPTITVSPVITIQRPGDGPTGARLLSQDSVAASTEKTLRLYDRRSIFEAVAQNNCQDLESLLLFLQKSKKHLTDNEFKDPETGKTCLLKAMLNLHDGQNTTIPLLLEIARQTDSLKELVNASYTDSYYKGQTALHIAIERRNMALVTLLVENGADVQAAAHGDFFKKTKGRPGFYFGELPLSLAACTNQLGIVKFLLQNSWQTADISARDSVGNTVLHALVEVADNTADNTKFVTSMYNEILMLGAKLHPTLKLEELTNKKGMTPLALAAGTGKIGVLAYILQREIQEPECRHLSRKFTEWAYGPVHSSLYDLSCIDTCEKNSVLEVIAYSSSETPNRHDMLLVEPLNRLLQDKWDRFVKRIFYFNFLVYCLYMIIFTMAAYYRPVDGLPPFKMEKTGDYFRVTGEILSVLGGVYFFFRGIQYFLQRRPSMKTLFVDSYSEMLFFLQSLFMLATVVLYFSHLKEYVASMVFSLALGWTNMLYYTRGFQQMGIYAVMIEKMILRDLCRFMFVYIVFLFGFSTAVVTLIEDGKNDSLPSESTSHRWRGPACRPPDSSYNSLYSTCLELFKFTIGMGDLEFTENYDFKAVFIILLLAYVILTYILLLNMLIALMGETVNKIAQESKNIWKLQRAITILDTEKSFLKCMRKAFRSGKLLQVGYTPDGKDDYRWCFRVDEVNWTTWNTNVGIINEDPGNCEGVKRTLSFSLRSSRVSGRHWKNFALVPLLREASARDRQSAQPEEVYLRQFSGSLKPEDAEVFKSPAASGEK
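Cells expressing TRPV1 were dye-loaded with Fluo-8 and read kinetically: 10 s baseline, 3 min after compound (agonist portion), then 2 min after EC20 capsaicin (allosteric enhancer portion). Calcium-bound dye fluorescence at 480/520 nm.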
D2 potentiator = Beta-Arrestin HTS for Positive Allosteric Modulators of the Human D2 Dopamine Receptor: Potentiators; D(2) dopamine receptor (Homo sapiens), P14416; DiscoveRx D2 beta-arrestin cells, luminescence, 90 min; 100% = 57 uM dopamine signal; potentiation, % (test concentration not listed); 360,000 tested, 0.23% active; active = potentiation of 50% or more; inconclusive = 30% to 50%; inactive = 30% or less;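 note: compound concentration not given in the record; tested on top of an EC20 dose of dopamine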
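D2 cells co-treated with compound plus 50 nM dopamine (EC20) for 90 min at 37 deg C to detect potentiation. Beta-arrestin recruitment was read as enzyme-fragment luminescence after 1 h at ambient temperature. Full response was set by 57 uM dopamine.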
ClpP mod = qHTS Assay for Activators of ClpP; 340,000 tested, 1.9% active; Potency, µM (doses to about 57.5 µM), for the others: top-dose activity change, negative = active; ATP-dependent Clp protease proteolytic subunit (Bacillus subtilis (strain 168)), P80244; purified B. subtilis ClpP, FRET peptide cleavage, 20 min; active = well fitted falling curve with a large enough effect; inconclusive = small, poorly fitted or top-dose-only effect; inactive = no such curve, though single readings can be large or run the other way; note: potency is the fitted concentration of half-maximal effect; the source files actives as falling curves though it sought activators and does not explain the sign; nearly all actives have a fitted effect of over 65% in size; many hits overshoot -100%
Target sequence (P80244 whole entry, looked up): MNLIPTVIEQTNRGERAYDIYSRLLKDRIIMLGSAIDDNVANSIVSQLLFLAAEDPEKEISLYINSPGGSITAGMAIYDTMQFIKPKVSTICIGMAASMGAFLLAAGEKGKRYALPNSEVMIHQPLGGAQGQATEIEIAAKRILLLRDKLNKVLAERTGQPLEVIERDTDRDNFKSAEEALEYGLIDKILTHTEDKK
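FRET quenching reversal measured ClpP activation: 10 microg/mL B. subtilis ClpP at pH 8 with the FRET-FV decapeptide, read at 430 nm after 320 nm excitation. The 20-min minus 0-min signal was scaled between DMSO/no-enzyme wells and ADEP (5.8 microM final).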
gsp antag = qHTS for Antagonists of gsp, the Etiologic Mutation Responsible for Fibrous Dysplasia/McCune-Albright Syndrome: qHTS | gsp-mutant cells, cAMP HTRF, 30 min; control for the full effect not named in the record | Potency, µM (top dose mostly 76.9 µM), for inactives: at the highest dose activity change, negative = inhibition, usual class: inhibitors | 340,000 tested, 0.4% active | AID 624288, 2012; active = falling curve of any shape with a large fitted effect; inconclusive = falling curve, mostly with a smaller effect; inactive = flat or rising curve; cell line not stated here;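 note: intracellular cAMP measured with PDE inhibitor Ro 20-1724 present during compound exposure; potency is the fitted concentration of half-maximal effect; % is set by controls: 0 for no effect and ±100 for the full control effect; nearly all actives have a fitted effect of over 65% in size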
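G418-selected cells were plated in DMEM/10% FBS for 16-24 h at 37C, then treated with compounds plus the PDE inhibitor […] (300 uM solution added) for 30 min at 37C. Intracellular cAMP was measured by HTRF after 30 min lysis at room temperature.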
gsp ag = qHTS for Agonist of gsp, the Etiologic Mutation Responsible for Fibrous Dysplasia/McCune-Albright Syndrome: qHTS. 340,000 tested, 0.13% active. Potency, µM (top dose mostly 76.9 µM), for inactives: top-dose activation (cAMP increase), most hits filed as activators. gsp mutant cells, cAMP HTRF, 30 min; control for the full effect not named in the record. AID 624287, 2012; active = well fitted activation curve with a large enough effect; inconclusive = small, poorly fitted or top-dose-only effect, or another doubt; inactive = no such curve, though single readings can be large or run the other way; cell line not stated here;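 note: phosphodiesterase inhibitor Ro 20-1724 added with compounds to block cAMP breakdown; potency is the fitted concentration of half-maximal effect; nearly all actives have a fitted effect of over 60% in size; about a fifth of the inactives were tested at one dose only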
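Cells stably selected in G418 were plated at 2000/well, grown 16-24 hr, then given compounds in DMSO with the PDE inhibitor […] (300 uM solution added) for 30 min at 37C; cAMP was read by HTRF.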
Starred values were filed as active, the others as inactive; i = inactive; ? = inconclusive; . = not tested or not shown; [ ] = remark or other dose.

Start of the listing, in advance:
SMILES	Sfp inh	Menin-MLL FL inh	TRPV1 potentiator	D2 potentiator	ClpP mod	gsp antag	gsp ag
O=C(CN1C(=O)NC2(CCCc3ccccc32)C1=O)Nc1cccc(S(=O)(=O)N2CCCCC2)c1 (stereo not given)	8%	4.1	-5	-14	0.8%	3%	10%
O=C(Nc1ccncc1)C1CCCN(S(=O)(=O)c2cccc3cccnc23)C1 (stereo not given)	11%	2.2	-15	-3	-3.6%	7%	-9%
O=C(OCC(=O)N1CCN(C(=O)c2ccco2)CC1)c1ccccc1OCc1ccccc1	10%	4.2	2	-17	-2.0%	4%	11%
Cc1ccc(OCC(=O)Nc2ccon2)c([N+](=O)[O-])c1	22%	.	15	-17	0.0%	9%	?

The listing, from the first entry:
SMILES	Sfp inh	Menin-MLL FL inh	TRPV1 potentiator	D2 potentiator	ClpP mod	gsp antag	gsp ag
O=C(CN1C(=O)NC2(CCCc3ccccc32)C1=O)Nc1cccc(S(=O)(=O)N2CCCCC2)c1 (stereo not given)	8%	4.1	-5	-14	0.8%	3%	10%
O=C(Nc1ccncc1)C1CCCN(S(=O)(=O)c2cccc3cccnc23)C1 (stereo not given)	11%	2.2	-15	-3	-3.6%	7%	-9%
O=C(OCC(=O)N1CCN(C(=O)c2ccco2)CC1)c1ccccc1OCc1ccccc1	10%	4.2	2	-17	-2.0%	4%	11%
Cc1ccc(OCC(=O)Nc2ccon2)c([N+](=O)[O-])c1	22%	.	15	-17	0.0%	9%	?
Cc1cc(C)n(-c2nnc(C)n2/N=C/c2ccccc2OCc2ccccc2Cl)n1	-11%	-0.1	-20	-7	-2.1%	-8%	-25%
CCN(C(=O)COC(=O)c1ccc(Cl)c(S(=O)(=O)N2CCCCC2)c1)C1CCS(=O)(=O)C1 (stereo not given)	.	.	.	-6	-3.6%	-2%	8%[15.4 µM]
CN(NC(=O)Nc1ccc(Cl)cc1)c1c(Cl)c(Cl)nn1C	9%	0.2	0	-4	-1.0%	-17%	11%
Cc1cc(C)c(C(N)=O)c(Cl)n1	14%	5.2	?	-17	-0.8%	13%	-46%[inhibitor]
C=CCSc1nc2c(c(=N)n1CC=C)C1CCCC1S2 (stereo not given)	-17%	1.3	-3	0	0.1%	-14%	2%
O=C(O)CN1C(=O)C2C3C=CC(C2C1=O)C1C(=O)N(CC(=O)O)C(=O)C31 (stereo not given)	22%	1.4	-2	-10	1.5%	16%	-18%
COc1ccc(Cl)cc1C(=O)NNC(=O)c1ccc(F)c(S(=O)(=O)N2CCOCC2)c1	.	.	.	-5	0.9%	-8%	?
Cc1ccc(NC(=O)COc2ccccc2)cc1S(=O)(=O)N1CCCCCC1	.	.	-15	-18	-2.0%	-15%	-56%
CCCCN1Cc2c(nc3cc(-c4ccccc4)[nH]n3c2=O)C1=O	4%	-0.6	6	-9	.	-23%	-3%[15.4 µM]
O=C(N/N=C/c1c[nH]c2ccccc12)c1ccc2c(c1)OCCO2	5%	1.0	.	-11	.	-5%	22%[15.4 µM]
CCCCn1c(C)cc2c(c1=O)[C@H]1O[C@](CCCC)(Cc3c1ccc1ccccc31)O2	20%	-2.0[11.7 µM]	i	.	.	.	.
O=C(CSc1ccccn1)NC1CCCc2c1cnn2-c1ccccc1F (stereo not given)	.	.	.	-12	-0.7%	.	-18%
O=C(O)CCCCN1C(=O)/C(=C\c2ccc(OCc3ccccc3)c(OCc3ccccc3)c2)SC1=S	-25%	.	17	-12	-2.8%	?	11%
CCCc1cc(NCCCCO)n2c(nc3ccccc32)c1C#N	8%	3.8	-8	4	20%	7%	-16%
CC(OC(=O)c1ccc2ncsc2c1)C(=O)NCc1ccccc1 (stereo not given)	10%	5.7	-9	.	.	.	.
COc1ccc(OCc2cc(C(=O)NCc3cccc(C)n3)no2)c(Cl)c1	13%	.	-18	2	-1.0%	-17%	-6%
COc1ccc(C(=O)Nc2ccccc2NC(=O)c2ccco2)c(OC)c1	21%	-0.9	1	-10	1.3%	-22%	?
O=C1c2c(Cl)c(Cl)c(Cl)c(Cl)c2C(=O)N1c1nccs1	.	.	.	-1	-1.3%	-10%	-17%
Cc1ccc(COC(=O)NCc2cccnc2)cc1	15%	-0.5	-6	-3	3.8%	5%	9%
COc1ccc(CCNS(=O)(=O)c2cn(C)cn2)cc1OC	16%	0.4	5	-5	-2.5%	10%	-3%
COc1cc2nc(CC(C)C)n(NC(=O)c3ccccc3)c(=O)c2cc1OC	-4%	4.2	-9	-5	-8.6%	5%	4%

3 consecutive records from above, quoted:
SMILES	Sfp inh	Menin-MLL FL inh	TRPV1 potentiator	D2 potentiator	ClpP mod	gsp antag	gsp ag
COc1ccc(OCc2cc(C(=O)NCc3cccc(C)n3)no2)c(Cl)c1	13%	.	-18	2	-1.0%	-17%	-6%
COc1ccc(C(=O)Nc2ccccc2NC(=O)c2ccco2)c(OC)c1	21%	-0.9	1	-10	1.3%	-22%	?
O=C1c2c(Cl)c(Cl)c(Cl)c(Cl)c2C(=O)N1c1nccs1	.	.	.	-1	-1.3%	-10%	-17%

The listing continues:
SMILES	Sfp inh	Menin-MLL FL inh	TRPV1 potentiator	D2 potentiator	ClpP mod	gsp antag	gsp ag
Cc1ccc(NC(=O)CSc2ccccc2NC(=O)c2cccc(Cl)c2)cc1Cl	-12%	1.2	4	-14	-4.4%	3%	1%
CCOc1ccc2c(c1)OC(c1ccc(C)cc1)(C(F)(F)F)NC2=O (stereo not given)	-13%	-2.6	3	0	0.9%	0%	0%
COc1ccc(OCC(=O)NCCNC(=O)c2cccnc2)cc1	20%	3.6	-10	0	.	4%	25%
O=C1CC(C2CCCO2)C(=O)N1Cc1ccccc1 (stereo not given)	14%	-0.5	-4	9	-2.8%	-9%	4%
NC(=O)[C@H](Cc1cc2ccccc2s1)NC(=O)[C@@H]1CC2(CC(c3cccc(NC(=O)[C@@H]4CCC(=O)N4)c3)=NO2)CN1C(=O)c1ccccc1 (stereo not given in full)	2%	2.9	10	-9	-2.1%	-9%	?
COc1cccc(C(c2sc3nc(C)nn3c2O)N2CCN(C(=O)c3ccco3)CC2)c1 (stereo not given)	17%	3.7	4	-9	-1.2%	6%	-22%
CCOC(=O)c1c(S(=O)(=O)NCCCc2ccco2)c(C)n(C)c1C	-18%	8.6	5	-8	-1.1%	-7%	?
Cc1ccc(S(=O)(=O)CCC(=O)Oc2ccc(-c3nnco3)cc2)cc1	.	.	12	-4	.	6%	-10%[15.4 µM]
CC(/C=N/NC(=O)c1sc(N)nc1C)=C\c1ccccc1	-4%	-0.4	-11	-2	.	-3%	-25%
CCOC(=O)COc1c(OC)cc(Cl)cc1C1NC(=O)NC(C)=C1C(C)=O (stereo not given)	9%	1.1	2	0	-1.7%	-2%	-10%
Cn1c(=O)c2c(nc(NC3CCCCC3)n2Cc2ccccc2)n(C)c1=O	-1%	-0.5	?	1	0.5%	-2%	-14%
Cc1nc(C(N)=O)c(N)n1CCc1ccccc1	-21%	?	25	-1	-1.8%	7%	-15%[15.4 µM]
CCC(c1nnnn1CCC(C)C)N1CCC(C(N)=O)CC1 (stereo not given)	-3%	0.3	6	3	-2.0%	-7%	-34%[inhibitor]
COc1cc(C2CC(=O)Oc3cc(C)c(Br)c(C)c32)cc(OC)c1OC (stereo not given)	-14%	1.8	.	.	-0.8%	-3%	.
O=C(OCn1nnc2ccccc2c1=O)c1ccc(S(=O)(=O)N2CCOCC2)cc1	3%	-4.1	6	-1	0.0%	-16%	3%
Cc1cc(C)c(S(=O)(=O)NCC2CCC(C(=O)NCCCN3CCC(C)CC3)CC2)c(C)c1 (stereo not given)	-3%	0.2	0	-8	-0.2%	-5%	-21%
Cc1cc(C)cc(NC(=O)CN2C(=O)NC(Cc3c[nH]c4ccccc34)C2=O)c1 (stereo not given)	.	.	.	-6	0.5%	8%	-1%
CC1CN(C(=O)Cn2cc(SCC(=O)N3CCOCC3)c3ccccc32)CC(C)O1 (stereo not given)	9%	.	1	-9	0.7%	13%	-15%
O=C(NCc1ccccc1Cl)C1CCCN1C(=O)NCc1ccccc1 (stereo not given)	10%	0.6	5	1	0.8%	-4%	1%
CC(OC(=O)c1cccc(-n2cnnn2)c1)C(=O)Nc1ccc(F)cc1 (stereo not given)	1%	.	21	-14	-1.0%	-2%	5%
COc1ccc(CN(C(C)=O)c2cc(C)c([N+](=O)[O-])cc2OC)cc1OC	.	.	.	-9	-2.2%	.	-43%
O=C(NC1CCCCC1)N1CCN(c2ccccc2Cl)CC1	14%	6.2	-13	-16	0.9%	2%	29%
O=C(C1CCCO1)N1CCN(C(=S)Nc2ccccc2C(F)(F)F)CC1 (stereo not given)	15%	2.9	-4	-4	1.6%	10%	1%[15.4 µM]

Complete entries as entered above. Order of screens: Sfp inh, Menin-MLL FL inh, TRPV1 potentiator, D2 potentiator, ClpP mod, gsp antag, gsp ag
`Cc1ccc(S(=O)(=O)CCC(=O)Oc2ccc(-c3nnco3)cc2)cc1` is listed with ., ., 12, -4, ., 6%, -10%[15.4 µM]
`COc1cccc(C(c2sc3nc(C)nn3c2O)N2CCN(C(=O)c3ccco3)CC2)c1` (stereo not given) is listed with 17%, 3.7, 4, -9, -1.2%, 6%, -22%
`O=C1CC(C2CCCO2)C(=O)N1Cc1ccccc1` (stereo not given) is listed with 14%, -0.5, -4, 9, -2.8%, -9%, 4%
`CCOC(=O)c1c(S(=O)(=O)NCCCc2ccco2)c(C)n(C)c1C` is listed with -18%, 8.6, 5, -8, -1.1%, -7%, ?

Hits appear at their usual frequency; 5.1% or so of the library scored in one or more.
